VDR inh: blocks the human vitamin D receptor. P11473. VDR-SRC2-3 peptide fluorescence polarization, 2 h. Potency, µM, for the others: max response, negative = inhibition, most hits filed as inhibitors. 400,000 tested, 0.93% active. AID 504847; active = well fitted inhibition curve with a large enough effect; inconclusive = small, poorly fitted or top-dose-only effect, or another doubt; inactive = no such curve, though single readings can be large or run the other way; also: series mostly up to about 120 µM
Target sequence (P11473 whole entry, looked up): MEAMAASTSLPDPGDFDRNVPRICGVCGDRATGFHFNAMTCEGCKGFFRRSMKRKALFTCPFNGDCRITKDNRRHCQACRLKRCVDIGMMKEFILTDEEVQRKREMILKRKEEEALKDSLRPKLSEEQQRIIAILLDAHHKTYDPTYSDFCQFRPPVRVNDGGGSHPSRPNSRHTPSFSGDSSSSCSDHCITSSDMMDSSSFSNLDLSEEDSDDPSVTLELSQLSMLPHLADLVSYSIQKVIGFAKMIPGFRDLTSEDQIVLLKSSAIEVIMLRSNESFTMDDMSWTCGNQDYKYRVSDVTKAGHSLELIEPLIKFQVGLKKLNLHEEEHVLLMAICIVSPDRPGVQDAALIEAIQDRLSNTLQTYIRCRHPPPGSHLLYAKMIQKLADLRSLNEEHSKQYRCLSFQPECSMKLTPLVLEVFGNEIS
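FP read-out; VDR + SRC2-3 coactivator peptide; 23 nl compound by pintool; 2 h RT incubation; reagents held at 4 deg C, protected from light.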
An asterisk follows results filed as active; u = inconclusive; & = joins results of further samples; [ ] = dose if it differs, or a comment. % is scaled to controls: 0 for no effect and ±100 for the full control effect; potency is read from the fitted curve at half-maximal effect. The list is partial (hit frequency here may not be typical).

VDR inh,SMILES
1%,O=C(OCc1cc([N+](=O)[O-])cc2c1OCOC2)c1ccc2ccccc2n1
-9%,CN(CCc1ccccn1)C(=O)Nc1ccc(F)cc1
-3%,COc1ccc2c(c1)C(=O)[C@@H](OC(=O)NS(=O)(=O)c1ccc(F)cc1)[C@H](c1ccc(OC)c(Br)c1)O2
-4%,Cc1ccc(Nc2sc(C(=O)c3ccccc3)c(N)c2C(N)=O)cc1
9%,Cn1c(CCN2CCCCC2)nc2cc(NC(=O)COc3ccc([N+](=O)[O-])cc3)ccc21
-16%,COc1ccc(CCN2CC(O)=C(c3nc(C)cs3)C2=N)cc1OC
29%,CCOC(=O)C1=C(NC(=S)NC(=O)c2ccccc2)c2ccccc2CC1(C)C
-4%,COC(=O)c1ccc(CSc2ncnc3c2nnn3-c2ccc(OC)cc2)o1
-15%,COc1ccc(N(C(=O)CS(=O)CC(=O)Nc2ccc(F)cc2)C(C(=O)NC2CCCCC2)c2cccs2)cc1 (stereo unspecified)
-9%,Cc1ccc(N2CCN(C(=O)CCc3c(C)nc4ncnn4c3C)CC2)c(C)c1
-5%,COc1ccc(NC(=O)COC(=O)C2CCC2)cc1Cl
-27%,CCCCN(C(=O)c1ccc(-c2ccc([N+](=O)[O-])cc2)o1)c1c(N)n(CCCC)c(=O)[nH]c1=O
7%,CC12CCC(C(=O)N(CCC#N)CCC#N)(CC1=O)C2(C)C (stereo unspecified)
7%,c1ccc(CCNCCCOc2cccc3ccccc23)cc1
-7%,Cn1c(Cc2ccccc2)nnc1SCC(=O)c1cccs1
3%,CCc1ccc(CCC(=O)Nc2ccc(OC)cc2)o1
-12%,COC(=O)c1ccc(-n2c(C)cc(C(=O)CSc3cccc[n+]3[O-])c2C)cc1
-3%,C(=N\Nc1ccc2ccccc2n1)/c1ccc2c(c1)OCO2
-6%,Fc1ccccc1CSc1nnc(-c2ccccc2)o1
-8%,O=[N+]([O-])c1ccccc1N/N=C/c1cccc(O)c1O
37%[activator],Cc1cc(NC(=O)CSc2nnc(-c3ccoc3C)n2N)no1
10%,CCCNC(=O)CSc1nc2nc(C)c(Cc3ccccc3Cl)c(C)n2n1
-1%,CCC(=O)OCc1cnc(C)c2oc(=O)c(C(=O)Nc3ccccc3C(F)(F)F)cc12
-4%,CCOC(=O)C(CC)Sc1nc(N)c(NC(=O)c2ccc(OC)c(OC)c2)c(=O)[nH]1 (stereo unspecified)
-16%,Cc1ccc(NC(=O)CC2Sc3ccccc3NC2=O)c(Br)c1 (stereo unspecified)
-3%,CCc1ccc(NC(=O)c2ccc(CN3C(=O)C(C)=C(c4ccc(C)cc4)S3(=O)=O)cc2)cc1
-2%,O=C(CSc1nc2ccccc2c(=O)n1CCCN1CCOCC1)Nc1ccc(F)c(Cl)c1
16%,Cc1sc2ncnc(SCC(=O)Nc3cccc(S(N)(=O)=O)c3)c2c1C
-8%,Fc1ccccc1N1CCN(c2nc(-c3cccs3)nc3ccccc23)CC1
-21%,CC1(OC(=O)C2CCCC2)C(=O)C=C2C=C(c3ccsc3)N(CC3CC3)C=C2C1=O (stereo unspecified)

More entries follow:
VDR inh,SMILES
-12%,O=C(Nc1cc(-c2nc3ccccc3s2)ccc1Cl)c1ccc2c(c1)OCO2
-6%,CC(C)NC(=O)c1onc(CSc2ccc(Cl)cc2)c1C(=O)O
u,Cc1ccccc1-n1sc2cc(F)ccc2c1=O
1%,CC(C)C(=O)Nc1cccc(COc2ccc(CN(Cc3ccccc3)C(=O)OC(C)(C)C)cc2)c1
7%,O=C1c2cccnc2C(O)N1Cc1ccc(F)cc1 (stereo unspecified)
-1%,O=C(CN(Cc1ccccc1)C(=O)CSc1nnc(COc2ccccc2)o1)NC1CCCC1
15%,CCN(CC)c1ccc(NS(=O)(=O)c2cc(-c3onc(C)c3C)ccc2OC)c(C)c1
15%,O=C(Cc1c(F)cccc1Cl)Nc1ccccc1-c1ccccc1
22%,Cn1cccc1-c1cc(C(=O)N/N=C/C=C/c2ccccc2)[nH]n1
6%,CN(CCO)c1ccc(C(C(=O)c2ccccc2)c2ccc(N(C)CCO)cc2)cc1
-3%,CNc1nc(Nc2ccc(Br)cc2)nc(N)c1[N+](=O)[O-]
-5%,COc1ccc(-c2ccc3c(N)c(C(=O)NCc4ccc(C)cc4)sc3n2)cc1
12%,CCOC(=O)c1c(NC(C)=O)sc2c(OCC(O)CN(CC)CC)c(Br)ccc12 (stereo unspecified)
-8%,COc1cccc2cc(-c3csc(CCn4nc(C)cc4C)n3)c(=O)oc12
10%,CCCCN(C(=O)CCC(=O)O)C1CC(=O)N(c2ccc(OCCC)cc2)C1=O (stereo unspecified)
4%,Cc1cccc(C)c1OCC(=O)Nc1nc(-c2ccc(Br)cc2)ns1
4%,Cc1cccc(-c2nc3c(cnn3-c3ccccc3)c(=O)n2-c2cccc(Cl)c2)c1
-4%,COc1cc(OC)cc(-c2nnc(NC(=O)c3ccc4c(c3)OCCO4)o2)c1
-10%,CCO[C@@H]1OC(C(=O)O)=C[C@H](C2CC2)[C@H]1CCCO
0%,O=C1NC(c2cccs2)Nc2sc3c(c21)CCCC3 (stereo unspecified)
1%,NC(=O)C1CCCN1 (stereo unspecified)
-3%,O=S(=O)(Cc1ccc(Cl)cc1)CC(O)COCc1ccccc1 (stereo unspecified)
10%,CCCCCCCCCCCCC(NC(C)=O)(C(=O)OCC)C(=O)OCC
-26%,CC(C)CC(=O)Nc1ncc([N+](=O)[O-])s1
13%,COc1ccc(NS(=O)(=O)c2c(C)[nH]c(=O)[nH]c2=O)cc1OC
-7%,COc1cccc2c3c(c(C)nc12)CCN3c1ccccc1
18%,CC(=O)c1cccc(NC(=O)C2CCCN(S(=O)(=O)c3cccc4nonc34)C2)c1 (stereo unspecified)
5%,O=C(NC1CC1)C1CCN(C2CCN(C(=O)CC3=CCCCC3)CC2)CC1
-7%,Cc1ccc(S(=O)(=O)Nc2cc(=O)[nH]c(SCC(=O)Nc3ccccc3C(F)(F)F)n2)cc1
11%,CCOC(=O)C1=C(COC(=O)/C=C/c2cccc(F)c2)NC(=O)NC1C (stereo unspecified)

(listing goes on)
VDR inh,SMILES
-16%,COc1cc(C(=O)OC(C)CN2CCN(C)CC2)cc(OC)c1OC (stereo unspecified)
-26%,COc1ccc(C(=O)NCC(=O)OCC(=O)N(C)c2ccccc2)cc1
-14%,COC(=O)[C@]1(Cc2ccccc2)N[C@H](CN(C)S(=O)(=O)c2ccc(C(F)(F)F)cc2)[C@@H]2C(=O)N(Cc3ccccc3)C(=O)[C@@H]21
u,COc1ccc(N2CCN(C(=O)CNC(=O)c3ccc4ccccc4c3)CC2)cc1
-15%,COCCNC(=O)C1(C)Oc2ccccc2NC1=O (stereo unspecified)
-5%,Cc1ccc(N2C(=O)c3ccc(C(=O)N4CCN(c5cccc(C)c5C)CC4)cc3C2=O)cc1
-14%,CC(C)CNC(=O)C1CCCN1S(=O)(=O)c1ccc(Cl)cc1 (stereo unspecified)
6%,CNS(=O)(=O)c1cc(-c2nn3c(C)nnc3c3ccccc23)ccc1C
2%,Cc1ccc(C)n1-c1nnc(N2CCCC(C(=O)Nc3ccc(C(C)C)cc3)C2)s1 (stereo unspecified)
1%,CC(C)(C)c1ccc(C(=O)NCC(=O)N/N=C/c2cccnc2)cc1
-9%,CC(C)CCNC(=S)Nc1ccc(F)cc1
15%,COc1ccc2nc(SCC(=O)NCCc3ccccc3)[nH]c2c1
-10%,NC(=O)NC(=O)CN1C(=O)NC2(CCOc3ccccc32)C1=O (stereo unspecified)
12%,Cc1cccc(N2CCN(C(=O)Nc3cn(CC(C)C)c(=O)c4ccccc34)CC2)c1C
10%,COc1ccc(-c2cc3nc[nH]c(=O)c3s2)cc1
4%,CCn1c(O)c(C#N)c(C)cc1=O
1%,COc1ccc(NC(=O)c2oc3ccccc3c2NC(=O)Cc2cccs2)c(OC)c1
-4%,Cc1ccsc1/C=N/NC(=O)c1sccc1C
-3%,COc1ccc(/C=N/NC(=O)CCN2CCCCC2c2cccnc2)cc1Cn1cc([N+](=O)[O-])cn1 (stereo unspecified)
-1%,CCn1c(C)nc2cc(S(=O)(=O)C(F)(F)C(F)C(F)(F)F)ccc21 (stereo unspecified)
-4%,COC(=O)c1c(C)[nH]c(C(=O)C(C)OC(=O)c2cc(C)oc2C)c1C (stereo unspecified)
-8%,O=C(COC(=O)/C=C/c1ccco1)NCc1ccco1
-1%,COc1c2c(cc3oc(C)cc(=O)c13)OC(C(C)(C)OC1OC(CO)C(O)C(O)C1O)C2 (stereo unspecified)
-14%,CCOc1ccc(NC(=O)c2ccc(CSc3nnnn3C)cc2)cc1
-5%,O=C(/C=C/c1ccc(Cl)cc1)NCCCN1CCOCC1
-17%,CCC(=O)Nc1ccc(NC(=S)Nc2ccccc2)cc1
-9%,Cc1[nH]c2ccccc2c1/C=N/NC(=O)c1cc(-c2ccncc2)nc2ccccc12
-7%,CC1CCN(C(=O)c2cc3ccccc3o2)CC1
8%,Cc1cccc(OCCCn2c(CCNC(=O)C(C)C)nc3ccccc32)c1
-14%,O=Cc1ccc([B-](F)(F)F)s1

(cont.)
VDR inh,SMILES
-16%&1%,COCCNC(=O)CCc1nc2cccnc2n1Cc1ccc(OC)cc1
-7%,COc1ccc(/C=N/NC(=O)c2[nH]c3ccc(Br)cc3c2-c2ccccc2)cc1
-10%,Cc1nnc(SCC(=O)NC(=O)Nc2ccc3c(c2)OCCO3)n1N
8%,NC(=S)N/N=C/c1coc2cc(Br)ccc2c1=O
6%,Cc1ccc(C(=O)OCC(=O)Nc2cc(C(C)(C)C)no2)c(C)c1
15%,O=C(CC(c1ccccc1)c1cc(Cl)ccc1O)NCCN1CCOCC1 (stereo unspecified)
8%,COc1cccc(CN2CCNC(=O)C2CC(=O)N2CCOc3ccccc3C2)c1OC (stereo unspecified)
-12%,Cn1c(N/N=C/c2c[nH]c3ccccc23)nc2ccccc21
-10%,Cn1c(=O)[nH]c(=O)c2c1nc(N1CCOCC1)n2CC(O)COc1ccccc1 (stereo unspecified)
-16%,O=C(NCC(c1ccco1)N1CCc2ccccc2C1)c1ccccc1Cl (stereo unspecified)
u,CCOc1c(O)ccc(/C=C2\SC(=S)NC2=O)c1[N+](=O)[O-]
-15%,CCOc1ccc(N2C(=O)CN=C2Nc2ccccc2Cl)cc1
u,COCCCNc1oc(COc2ccc(Cl)cc2Cl)nc1C#N
-13%,CCCCN(Cc1ccccc1)C(=O)C1CCCN(S(=O)(=O)c2cnc[nH]2)C1 (stereo unspecified)
8%,CCOc1ccc(NC(=O)CN(C)C(=O)Cc2c(C)nc3ccccc3c2C)cc1OCC
-3%,COc1ccc(CCn2c3c(c(=O)[nH]c2=S)CN(C)CN3)cc1OC
9%,CN(C)/C=C1\C(=O)N(c2ccc(Oc3ccccc3)cc2)CS1=O (stereo unspecified)
-1%,CCN(CC)C(CNC(=O)c1cc(=O)[nH]c2ccccc12)c1ccccc1Cl (stereo unspecified)
-2%,CCC(C(=O)NCc1ccccc1Cl)n1c(=O)c2cccn2c2ccccc21 (stereo unspecified)
-4%,Cc1cccc(-c2nc3c4ccccc4nc(NCc4ccc(F)cc4)n3n2)c1
-12%,O=C(N/N=C/c1cccs1)c1ccc2c(c1)OCO2
1%,COc1ccc(CCNC2=C(Cl)C(=O)N(Cc3ccccc3)C2=O)cc1OC
4%,Cc1nc2cnc(Oc3ccccc3)nc2n(CCC#N)c1=O
3%,Cc1cc(N2CCOCC2)nc(SCc2ccc(Cl)cc2Cl)n1
9%,Cc1nn(-c2ccccc2)c(C)c1/C=N/NC(=O)c1cc(O)cc(O)c1
11%,CSc1ncccc1C(=O)NCCc1ccc(S(N)(=O)=O)cc1
17%,COc1cc2c(cc1OC)C(C(C)C)=NC(C)(C)C2
2%,Cc1ccc(/C=N/N(C)C2=NS(=O)(=O)c3ccccc32)cc1
3%,Cc1nc(Nc2ccc(F)cc2)[nH]c(=O)c1CCC(C)C
4%,O=S(=O)(NCC1CCCO1)c1cc(Br)c(Br)s1 (stereo unspecified)
-1%,CNC(=O)c1cc(C(=O)c2ccc(F)cc2Cl)c[nH]1
-6%,Fc1cccc(Cc2noc(CN3CCN(C4CCc5ccccc5C4)CC3)n2)c1 (stereo unspecified)
4%,O=C(CCn1c2c(c3ccccc31)CCCC2)NNC(=O)c1ccccc1C(=O)O

Structural class, the entries above containing a thiophene ring, fused or not
VDR inh,SMILES
-4%,Cc1ccc(Nc2sc(C(=O)c3ccccc3)c(N)c2C(N)=O)cc1
-15%,COc1ccc(N(C(=O)CS(=O)CC(=O)Nc2ccc(F)cc2)C(C(=O)NC2CCCCC2)c2cccs2)cc1 (stereo unspecified)
-7%,Cn1c(Cc2ccccc2)nnc1SCC(=O)c1cccs1
16%,Cc1sc2ncnc(SCC(=O)Nc3cccc(S(N)(=O)=O)c3)c2c1C
-8%,Fc1ccccc1N1CCN(c2nc(-c3cccs3)nc3ccccc23)CC1
-21%,CC1(OC(=O)C2CCCC2)C(=O)C=C2C=C(c3ccsc3)N(CC3CC3)C=C2C1=O (stereo unspecified)
-5%,COc1ccc(-c2ccc3c(N)c(C(=O)NCc4ccc(C)cc4)sc3n2)cc1
12%,CCOC(=O)c1c(NC(C)=O)sc2c(OCC(O)CN(CC)CC)c(Br)ccc12 (stereo unspecified)
0%,O=C1NC(c2cccs2)Nc2sc3c(c21)CCCC3 (stereo unspecified)
10%,COc1ccc(-c2cc3nc[nH]c(=O)c3s2)cc1
1%,COc1ccc(NC(=O)c2oc3ccccc3c2NC(=O)Cc2cccs2)c(OC)c1
-4%,Cc1ccsc1/C=N/NC(=O)c1sccc1C
-14%,O=Cc1ccc([B-](F)(F)F)s1
-12%,O=C(N/N=C/c1cccs1)c1ccc2c(c1)OCO2
4%,O=S(=O)(NCC1CCCO1)c1cc(Br)c(Br)s1 (stereo unspecified)

Source: PubChem BioAssay (National Center for Advancing Translational Sciences (NCATS))
